# TRPML1 inh: human mucolipin-1 channel inhibition; 0.02% of 390,000 active; activity change, negative = inhibition, % (concentration not given with the values); TRPML1-inducible cells, Ca2+ dye fluorescence, FDSS; active compounds read low; inhibition of EC80 agonist-evoked calcium signal; in the data active means activity change below about -50%; inconclusive means about -30% to -50%; inactive means above about -30%;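 further: stimulus is agonist 54-4 at its EC80 concentration; on the % scale 0 is the no-effect control and ±100 the full control effect; the text of the record puts the active cut at -80%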
# Target sequence (Q9GZU1 whole entry, looked up): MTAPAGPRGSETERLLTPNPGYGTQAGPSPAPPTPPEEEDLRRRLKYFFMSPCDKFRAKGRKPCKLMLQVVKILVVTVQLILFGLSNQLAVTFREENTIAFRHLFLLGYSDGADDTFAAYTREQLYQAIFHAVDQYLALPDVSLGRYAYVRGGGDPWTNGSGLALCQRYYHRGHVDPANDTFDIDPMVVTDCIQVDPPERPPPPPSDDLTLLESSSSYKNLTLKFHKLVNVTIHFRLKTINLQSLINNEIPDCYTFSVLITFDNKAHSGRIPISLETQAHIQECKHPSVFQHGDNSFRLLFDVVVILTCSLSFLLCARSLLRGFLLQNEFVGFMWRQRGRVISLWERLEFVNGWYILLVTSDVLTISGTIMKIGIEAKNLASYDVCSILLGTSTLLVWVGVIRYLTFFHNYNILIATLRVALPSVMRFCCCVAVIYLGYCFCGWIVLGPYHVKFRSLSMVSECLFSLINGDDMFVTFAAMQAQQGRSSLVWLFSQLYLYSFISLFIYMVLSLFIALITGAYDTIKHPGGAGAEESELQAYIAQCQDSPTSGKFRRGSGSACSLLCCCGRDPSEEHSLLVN
#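 Tet-induced TRPML1-DL cells loaded with Ca8 no-wash calcium dye were read kinetically on FDSS. Compound addition was followed by EC80 agonist 54-4 (4 uM final); inhibition was read over 110 s.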
# Menin-MLL FL inh: inhibitors of human menin-MLL interaction, wild-type MLL peptide; 290,000 tested, under 10 active; Fluorescence polarization, fluorescein-MLL peptide displacement from menin; FP activity change, % at 61.4 µM; inconclusive = falling polarisation curve, or a change in total fluorescence; inactive = total fluorescence flat and polarisation flat or rising; no compound was filed as active; the % refers to the polarisation; negative = inhibition;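 further: % of control where 0% means no effect; inhibitors lower the polarisation; unlabelled MLL peptide was the positive control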
# ClpP mod: qHTS Assay for Activators of ClpP. ATP-dependent Clp protease proteolytic subunit (Bacillus subtilis (strain 168)), P80244. purified B. subtilis ClpP, FRET peptide cleavage, 20 min. Potency, µM (doses to about 57.5 µM), without a hit: top-dose activity change, negative = active. 1.9% of 340,000 active; active = well fitted falling curve with a large enough effect; inconclusive = small, poorly fitted or top-dose-only effect; inactive = no such curve, though single readings can be large or run the other way; further: potency means the concentration at half of the fitted maximal effect; the source files actives as falling curves though it sought activators and does not explain the sign; nearly all actives have a fitted effect of over 65% in size; many hits overshoot -100%
# Target sequence (P80244 whole entry, looked up): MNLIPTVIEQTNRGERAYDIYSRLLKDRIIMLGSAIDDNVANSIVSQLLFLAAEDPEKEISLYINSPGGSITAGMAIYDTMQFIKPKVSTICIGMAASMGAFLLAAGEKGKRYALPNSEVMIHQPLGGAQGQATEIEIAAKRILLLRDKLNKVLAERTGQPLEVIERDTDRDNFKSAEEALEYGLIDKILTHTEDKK
#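 Buffer: 100 mM Tris/HCl pH8, 100 mM KCl, 0.05% low protease BSA, 2.5% glycerol, 0.01% Tween-20. ClpP 10 microg/mL final; 20 min RT; delta FRET normalized to ADEP and DMSO controls.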
# gsp ag: agonists of gsp mutant (McCune-Albright syndrome) | AID 624287 | 0.13% of 340,000 active | Potency, µM (series often up to 76.9 µM), for the others: at the top dose activation (cAMP increase), usual class: activators | gsp mutant cells, cAMP HTRF, 30 min; control for the full effect not named in the record; active = well fitted activation curve with a large enough effect; inconclusive = small, poorly fitted or top-dose-only effect, or another doubt; inactive = no such curve, though single readings can be large or run the other way; cell line not stated here;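 further: phosphodiesterase inhibitor Ro 20-1724 added with compounds to block cAMP breakdown; potency means the concentration at half of the fitted maximal effect; nearly all actives have a fitted effect of over 60% in size; about a fifth of the inactives were tested at one dose only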
#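 Cells stably selected in G418 were plated at 2000/well, grown 16-24 hr, then given compounds in DMSO with the PDE inhibitor […] (300 uM solution added) for 30 min at 37C; cAMP was read by HTRF.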
# gsp antagonist: gsp mutant antagonism | gsp-mutant cells, cAMP HTRF, 30 min; control for the full effect not named in the record | Potency, µM (doses to about 76.9 µM), for the others: at the top dose activity change, negative = inhibition, actives largely listed as inhibitors | 0.4% of 340,000 active | AID 624288; active = falling curve of any shape with a large fitted effect; inconclusive = falling curve, mostly with a smaller effect; inactive = flat or rising curve; cell line not stated here;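 further: intracellular cAMP measured with PDE inhibitor Ro 20-1724 present during compound exposure; potency means the concentration at half of the fitted maximal effect; on the % scale 0 is the no-effect control and ±100 the full control effect; nearly all actives have a fitted effect of over 65% in size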
#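 HTRF cAMP read-out (cAMP-d2 plus anti-cAMP antibody-K in lysis buffer, 30 min RT). Before lysis, cells are exposed to compounds with […] for 30 min at 37C in DPBS containing Ca/Mg, BSA and Tween 20.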
# Sfp inh: inhibitors of Bacillus subtilis Sfp phosphopantetheinyl transferase; AID 1490; Biochemical Sfp PPTase activity, qHTS; 3.5% of 310,000 active; Q9F4F7; Potency, µM, inactives show max response, negative = inhibition, hits mostly inhibitors; active means well fitted inhibition curve with a large enough effect; inconclusive means small, poorly fitted or top-dose-only effect, or another doubt; inactive means no such curve, though single readings can be large or run the other way;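 further: the enzyme is Sfp with the accession as filed and its product quenches rhodamine fluorescence; potency means the concentration at half of the fitted maximal effect; 0% = enzyme reaction without inhibitor and -100% = no enzyme wells; top concentration of the series not given in the record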
#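 Step 1, compound plus 15 nM Sfp-PPTase, 15 min, room temperature. Step 2, add rhodamine-CoA (5 uM) and BHQ-2-YbbR (12.5 uM). Step 3, read 525/598 nm fluorescence at 0 and 30 min.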
# TRPV1 PAM: potentiators of human vanilloid receptor 1 (TRPV1); Q8NER1; TRPV1-expressing cells, Fluo-8 calcium influx, capsaicin EC20 potentiation; host cell line not named in the record; control for the full effect not named in the record; potentiation, % at 8.33 µM; 0.02% of 320,000 active; AID 540277; active means potentiation above 80%; inconclusive means 30% to 80%; inactive means below 30%; further: 0% is about no effect
#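 Cells expressing TRPV1 were dye-loaded with Fluo-8 and read kinetically: 10 s baseline, 3 min after compound (agonist portion), then 2 min after EC20 capsaicin (allosteric enhancer portion). Calcium-bound dye fluorescence at 480/520 nm.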
# The depositor's hits bear a star; u = inconclusive; x = no result given; & = joins results of further samples; [ ] = remark or other dose.
SMILES,TRPML1 inh,Menin-MLL FL inh,ClpP mod,gsp ag,gsp antagonist,Sfp inh,TRPV1 PAM
COC(=O)c1ccc(CNC(=O)c2ccccc2C(=O)NCC2(CBr)OCCO2)cc1,-5,x,0.7%,-34%[inhibitor],x,x,x
N/C(CCCN1CCCCC1)=N/O,-2,0.3,-0.5%,3%,11%,-4%,26
CNC(=O)CSc1nnc(-c2ccco2)n1-c1cc(C)ccc1C,2,2.7,-0.5%,1%,5%,16%,0
Cc1nc2ccc(C(=O)N/N=C/c3ccc(O)cc3)cc2[nH]1,-15,1.2,x,-27%[15.4 µM],0%,22%,15
CCN(CC)C(=O)CSc1nc2ccc(NC(=O)CSc3nnc(N)s3)cc2s1,0,4.9,-3.2%,-8%,-12%,10%,20
CC(C)C(C)(C#N)NC(=O)COC(=O)C1CCN(S(=O)(=O)c2ccc3c(c2)OCCO3)CC1 (centres undefined),1,x,-0.8%,0%,-7%,x,x
CNS(=O)(=O)c1cccc(C(=O)OCC(=O)N2CCc3ccccc3C2)c1,27,4.7,2.6%,0%,-8%,10%,1
CCn1ncc(/C=C2/SC(=S)NC2=O)c1C,0,6.7,-10%,-18%,-15%,-11%,6
Cc1ccc(OC(=O)c2sc3ncn(C)c(=O)c3c2C)cc1,-20,-3.8,x,-8%[15.4 µM],1%,2%,30
CC(OC(=O)C1CCCC1)C(=O)Nc1ncc(Cl)cc1Cl (centres undefined),5,x,-4.4%,8%,7%,x,-1
Nc1c(C(=O)N/N=C/c2ccc(OCc3ccccc3)cc2)cnn1-c1ccccc1,17,-0.1,-1.3%,12%,7%,-2%,-5
Nc1cc(C(Cl)=C(Cl)Cl)c(S(N)(=O)=O)cc1S(N)(=O)=O,7,0.9,-0.1%,x,-1%,14%&15%,-12
CCOc1ccc(S(=O)(=O)N2CCOCC2)cc1NC(=O)CN1C(=O)NC(CC)(c2ccccc2)C1=O (centres undefined),-4,x,0.0%,-10%[15.4 µM],5%,15%,7
CC(O/N=C/c1ccc(OC(F)F)cc1)C(=O)Nc1cccc(S(=O)(=O)N2CCOCC2)c1 (centres undefined),1,4.5,1.6%,-35%[inhibitor],0%,10%,-8
Cc1cc(S(=O)(=O)N(Cc2ccccc2F)C2CC2)ccc1-n1cnnn1,-2,2.0,1.1%,-3%[15.4 µM],-44%,-1%,-15
Cc1cccc(C)c1NC(=O)COC(=O)c1ccc2[nH]c3c(c2c1)CCCC3,11,7.7,u,28%,-1%,17%,-3
O=C1Cc2ccccc2C(=O)N1CCc1ccccc1,-14,1.4,0.6%,15%,2%,-4%,x
CCN1C(=O)[C@H]2[C@@H](c3ccc(-c4cc(C(C)=O)cs4)cc3)N[C@@](Cc3ccccc3)(C(=O)OC)[C@H]2C1=O,-13,x,u,u,-16%,x,x
CCOC(=O)CC(NC(=O)c1cc2ccccc2oc1=O)c1cccc([N+](=O)[O-])c1 (centres undefined),10,-0.2,1.5%,-1%[15.4 µM],0%,-14%,-4
COc1ccccc1NS(=O)(=O)c1ccc(C(=O)N2CC(C)OC(C)C2)cc1 (centres undefined),-9,x,0.9%,-5%,-10%,x,-11
O=C(CN(c1ccccn1)S(=O)(=O)c1ccc(F)cc1)Nc1ccccc1,0,-0.3,x,-16%,15%,20%,4
Cc1ccc(C2C(C#N)=C(N)Oc3nc(-c4ccccc4)[nH]c32)o1 (centres undefined),1,5.6,-1.2%,u,3%,10%,1
O=C(NCC1CCCO1)C(c1cccnc1)N(C(=O)Cc1cccs1)c1ccccc1 (centres undefined),-2,5.3,0.3%,-19%,-1%,14%,x
Cc1cc(C)nc(N2CCC(C(=O)NC3CCCc4ccccc43)CC2)n1 (centres undefined),2,-1.4,-11%,13%,9%,7%,u
Cc1ccc(S(=O)(=O)c2c(C)nn(C(C)(C)C)c2OC(=O)C(C)(C)C)cc1,u,0.6,-3.1%,3%,-4%,6%,-10
Cn1c(=O)c2c(nc(Br)n2C/C=N/NC(N)=S)n(C)c1=O,-2,7.5,x,11%[15.4 µM],14%,50µM*,1
COc1ccc(S(=O)(=O)N2CCCOC2CNC(=O)C(=O)NCCCN2CCOCC2)cc1 (centres undefined),-11,-5.1,-1.5%,-5%,6%,3%,3
O=C(O)c1ccccc1-c1nc2ccccc2n1-c1ccccc1,-11,0.6,-5.9%,u,-3%,27%,2
O=C(CNC(=O)Cc1ccccc1)NCC(=O)OCc1ccc(C(=O)c2ccccc2)cc1,20,3.5,1.7%,-5%,3%,13%,4
NC(=O)c1ccc(NC(=O)COC(=O)CNC(=O)c2sc3ccccc3c2Cl)cc1,-7,x,-1.6%,24%,-2%,x,0
CCc1cccc(NC(=O)CCCn2c(=O)[nH]c3ccsc3c2=O)c1,-8,1.9,x,14%,-1%,5%,-15
O=C(Oc1ccc(Br)cc1C(=S)N1CCCC1)c1ccccc1F,1,6.3,3.6%,0%,-9%,45µM*,-4
O=C(O)CC(NNC(=O)c1ccccc1)C(=O)Nc1cccc([N+](=O)[O-])c1 (centres undefined),33,0.2,-1.4%,-11%,5%,-1%,28
CCOC(=O)N1CCN(C(=O)CS(=O)(=O)c2cn(Cc3ccccc3C)c3ccccc23)CC1,-4,2.1,-1.3%,-21%,-22%,-6%,17
COC(=O)c1ccc(NC(=O)c2cccc(N3C(=O)C4C5C=CC(C6CC56)C4C3=O)c2)cc1 (centres undefined),-7,x,0.9%,-1%[15.4 µM],-12%,8%,-17
COc1ccc(S(=O)(=O)/N=C2/NC(=O)/C(=C\c3cc(OC)c(OC)cc3[N+](=O)[O-])S2)cc1,4,1.3,0.3%,15%,7%,20%,-7
CCc1nc(SCC(=O)c2ccccc2)c2c(=O)n(C)c(=O)n(C)c2n1,2,10,x,-1%[15.4 µM],-5%,-9%,19
O=C1OCC=C1NNC(=O)c1cccnc1,-5,-1.2,1.7%,u,2%,-9%,3
Cc1ccc(NC(=O)C2CCC(CNc3c(N4CCC(C)CC4)c(=O)c3=O)CC2)cc1F (centres undefined),-2,-0.6,-0.3%,16%,8%,5%,u
CCOC(=O)Cc1nnc(NC(=O)CC)s1,-20,0.1,0.2%,-12%,0%,14%,-15

# Sorted by the number under gsp ag (falling): some entries from above.
Molecule | gsp ag
COc1ccc(S(=O)(=O)/N=C2/NC(=O)/C(=C\c3cc(OC)c(OC)cc3[N+](=O)[O-])S2)cc1 | 15%
CCc1cccc(NC(=O)CCCn2c(=O)[nH]c3ccsc3c2=O)c1 | 14%
O=C(Oc1ccc(Br)cc1C(=S)N1CCCC1)c1ccccc1F | 0%

# Carrying on.
SMILES,TRPML1 inh,Menin-MLL FL inh,ClpP mod,gsp ag,gsp antagonist,Sfp inh,TRPV1 PAM
CC1(C)SC(=S)N(/N=C/c2ccccc2O)C1N(O)C(=O)Nc1ccccc1 (centres undefined),-29,1.5,x,14%[15.4 µM],-14%,20%,9
CN(CC(=O)NC(=O)NCc1ccccc1)Cc1ccc(Cl)c(Cl)c1,-4,4.3,2.3%,u,-12%,-3%,-13
COc1cccc(OC)c1-c1nn2c(-c3ccccc3Cl)nnc2s1,6,3.5,-6.0%,-8%,1%,u,-11
CCOC(=O)C(C)On1c(-c2ccc(Cl)cc2)nc2ccc([N+](=O)[O-])cc21 (centres undefined),30,3.6,0.8%,u,u,u,1
Cc1ccc(CNC(=O)c2ccc(N3CCc4ccccc43)c([N+](=O)[O-])c2)cc1,17,-1.9,u,12%[15.4 µM],-26%,24%,27
CC(/C=N/NC(=O)c1nnn(-c2nonc2N)c1CN(C)C)=C\c1ccco1,1,-2.1,x,21%,-2%,u,11
CC12CC3CC(C)(C1)CC(C(=O)Nc1nncs1)(C3)C2,18,4.6,-1.6%,-7%[15.4 µM],3%,10%,-3
COc1c(N2CCN(C(=S)Nc3ccc(F)cc3)C(C)C2)c(F)cc2c(=O)c(C(=O)O)cn(C3CC3)c12 (centres undefined),-6,4.5,-13%,-4%,-18%,-14%,2
Cc1ccc(NC(=S)N2CCC(NC(=O)c3ccco3)CC2)cc1C,-4,-1.3,x,15%,7%,17%,1
CC(=O)c1ccc(N2CCN(C(=O)CNS(=O)(=O)c3ccc4c(c3)OCCCO4)CC2)c(F)c1,-7,x,-4.2%,-10%,-8%,x,4
Cn1c(CO)cnc1S(=O)(=O)Cc1ccc(Cl)cc1,-5,-4.6,x,4%,5%,12%,0
O=C(CSc1ccc(Cl)cc1)Nc1ccc(C2SCCS2)cc1,-1,4.0,-1.8%,-16%[15.4 µM],5%,9%,28
O=C(c1cc2ccccc2oc1=O)N(Cc1ccco1)C1CCS(=O)(=O)C1 (centres undefined),4,2.6,-4.4%,u,-2%,3%,4
CC(C(=O)N1CCCCC1)N(C)CC(=O)Nc1ccc(F)c(F)c1F (centres undefined),-6,x,1.0%,-21%,x,x,x
Cc1cccc(C)c1NC(=O)C1(NC(=O)C2CCCN2C(=O)OC(C)(C)C)CCCCC1 (centres undefined),11,-0.9,-0.6%,u,5%,-6%,u
C[C@@H]1CC=C[C@H]2[C@H]1C(=O)N(Cc1ccccc1)[C@H]2c1ccoc1,6,u,-0.2%,x,-8%,2%,-30
Cc1ccc(CNC(=O)c2oc3ccc(S(=O)(=O)N4CCOCC4)cc3c2C)cc1,5,5.4,-3.6%,8%,-9%,1%,-2
C=CCNc1nc(-c2c(C)nc3sccn23)cs1,1,1.4,-1.3%,2%,-18%,-16%,3
O=C(c1cccc2ccccc12)C1CCCN(C(=O)CCN2CCCO2)C1 (centres undefined),1,1.9,-0.1%,9%[15.4 µM],-26%,7%,6
CCCn1cc(SCC(=O)Nc2nnc(C)s2)c2ccccc21,18,-1.8,0.7%,-22%,-2%,25%,21
CCOC(=O)c1[nH]c(C)c(C(=O)N(C)Cc2ccccc2)c1C,-7,0.2,1.2%,-73%[inhibitor],6%,8%,-6
Cc1ccc(-c2ccnc(-c3ccc(O)cc3)n2)cc1,3,1.0,x,-10%[15.4 µM],-21%,-11%,-14

# Bioassay records from PubChem BioAssay.
